gsp antagonist: antagonists of gsp mutant (McCune-Albright syndrome) | Potency, µM (series often up to 76.9 µM), without a hit: at the top dose activity change, negative = inhibition, most hits filed as inhibitors | AID 624288 | gsp-mutant cells, cAMP HTRF, 30 min; control for the full effect not named in the record | 340,000 tested, 0.4% active; active = falling curve of any shape with a large fitted effect; inconclusive = falling curve, mostly with a smaller effect; inactive = flat or rising curve; cell line not stated here;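 also: intracellular cAMP measured with PDE inhibitor Ro 20-1724 present during compound exposure; potency is read from the fitted curve at half-maximal effect; % is scaled to controls: 0 for no effect and ±100 for the full control effect; nearly all actives have a fitted effect of over 65% in size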
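Cells, 2000/well, grown 16–24 h in DMEM 10% FBS with 0.5 mg/ml G418, then compounds plus […] (300 uM addition stock), 30 min at 37C. cAMP read by HTRF (cAMP-d2 and anti-cAMP antibody-K in lysis buffer) after 30 min RT.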
gsp ag: gsp mutant agonism; AID 624287; gsp mutant cells, cAMP HTRF, 30 min; control for the full effect not named in the record; Potency, µM (highest dose often 76.9 µM), without a hit: top-dose activation (cAMP increase), usual class: activators; 340,000 tested, 0.13% active; active = well fitted activation curve with a large enough effect; inconclusive = small, poorly fitted or top-dose-only effect, or another doubt; inactive = no such curve, though single readings can be large or run the other way; cell line not stated here;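 also: phosphodiesterase inhibitor Ro 20-1724 added with compounds to block cAMP breakdown; potency is read from the fitted curve at half-maximal effect; nearly all actives have a fitted effect of over 60% in size; about a fifth of the inactives were tested at one dose only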
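Cells stably selected in G418 were plated at 2000/well, grown 16-24 hr, then given compounds in DMSO with the PDE inhibitor […] (300 uM solution added) for 30 min at 37C; cAMP was read by HTRF.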
CtBP-E1A inh: inhibitors of CtBP/E1A interaction; 340,000 tested, 0.49% active; activity change, % (no concentration beside the values); AlphaScreen GST-E1A/His-CtBP binding, 1536-well; stronger effect = lower value; control for the full effect not named in the record; AID 651724; in the data active means activity change below about -65%; inconclusive means about -30% to -65%; inactive means above about -30%; also: % is scaled to controls: 0 for no effect and ±100 for the full control effect; compound concentration not given in the record
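AlphaScreen with 125 nM GST-E1A and 125 nM His-CtBP (5X stocks) in Tris pH 8.0, 300 mM NaCl, BSA, Tween 20, TCEP. Compounds preincubated 2 h at 37 deg C, then glutathione donor/nickel acceptor beads added for 1 h at 37 deg C in dark.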
D2 ag: human D2 receptor agonism in beta-arrestin assay; DiscoveRx PathHunter D2 beta-arrestin, luminescence, 90 min; 100% = 57 uM dopamine signal; activation, % (test concentration not listed); 360,000 tested, 0.084% active; AID 624465; in the data active = activation above about 40%; inconclusive = about 15% to 40%; inactive = below about 15%; also: compound concentration not given in the record; the text of the record calls up to 30% inactive
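DiscoveRx PathHunter D2 beta-arrestin cells (2,100/well) attached overnight, then compound-stimulated 90 min at 37 C in HBSS/10 mM HEPES/0.1% Tween-20 buffer; beta-galactosidase complementation read by luminescence after 1 h at ambient temperature. Dopamine 57 uM final (EC100) as control.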
D2 potentiator: positive allosteric modulators of human D2 dopamine receptor | DiscoveRx D2 beta-arrestin cells, luminescence, 90 min; 100% = 57 uM dopamine signal | AID 624464 | P14416 | 360,000 tested, 0.23% active | potentiation, % (test concentration not listed); active = potentiation of 50% or more; inconclusive = 30% to 50%; inactive = 30% or less;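 also: compound concentration not given in the record; tested on top of an EC20 dose of dopamine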
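D2 cells co-treated with compound plus 50 nM dopamine (EC20) for 90 min at 37 deg C to detect potentiation. Beta-arrestin recruitment was read as enzyme-fragment luminescence after 1 h at ambient temperature. Full response was set by 57 uM dopamine.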
Six1-Eya2 inh: inhibitors of human Six1/Eya2 interaction. Q15475+O00167. activity change, % (test concentration not listed). AID 651725. 360,000 tested, 0.56% active. AlphaScreen GST-Six1/His-Eya2 binding, biochemical; stronger effect = lower value; control for the full effect not named in the record; in the data active = activity change below about -65%; inconclusive = about -30% to -65%; inactive = above about -30%; also: % is scaled to controls: 0 for no effect and ±100 for the full control effect; compound concentration not given in the record
Target sequence (O00167 whole entry, looked up): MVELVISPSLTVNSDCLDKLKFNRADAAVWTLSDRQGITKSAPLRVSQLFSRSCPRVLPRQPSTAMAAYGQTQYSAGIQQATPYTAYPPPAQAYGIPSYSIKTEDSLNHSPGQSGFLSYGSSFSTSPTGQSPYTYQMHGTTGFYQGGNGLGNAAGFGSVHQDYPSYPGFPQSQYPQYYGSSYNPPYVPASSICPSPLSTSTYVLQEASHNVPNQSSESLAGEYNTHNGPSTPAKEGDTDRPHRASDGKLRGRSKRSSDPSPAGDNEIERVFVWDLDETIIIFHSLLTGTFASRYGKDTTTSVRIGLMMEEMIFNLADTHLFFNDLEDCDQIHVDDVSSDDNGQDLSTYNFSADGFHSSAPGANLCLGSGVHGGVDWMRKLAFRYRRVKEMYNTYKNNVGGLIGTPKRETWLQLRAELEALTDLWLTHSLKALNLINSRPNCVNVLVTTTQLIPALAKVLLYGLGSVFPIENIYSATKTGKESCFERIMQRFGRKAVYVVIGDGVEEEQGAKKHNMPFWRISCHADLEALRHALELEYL
Target sequence (Q15475 whole entry, looked up): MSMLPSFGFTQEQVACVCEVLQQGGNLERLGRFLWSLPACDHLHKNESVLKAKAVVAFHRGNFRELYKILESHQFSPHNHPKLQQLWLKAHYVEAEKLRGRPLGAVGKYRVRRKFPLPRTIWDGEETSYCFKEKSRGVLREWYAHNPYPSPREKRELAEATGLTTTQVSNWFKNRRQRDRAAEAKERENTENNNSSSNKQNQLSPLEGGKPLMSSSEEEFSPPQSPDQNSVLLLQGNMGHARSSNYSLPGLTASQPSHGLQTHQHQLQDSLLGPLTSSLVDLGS
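AlphaScreen luminescence read after one hour at 37 °C in darkness. Pin-transferred compounds met GST-Six1 and His-Eya2 protein (5X stock 250 nM/500 nM) plus glutathione donor and Ni-chelate acceptor beads (5X, 50 ug/mL).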
Starred values were filed as active, the others as inactive; ? = inconclusive; . = not tested or not shown; [ ] = dose if it differs, or a comment.

The line under a structure holds: gsp antagonist	gsp ag	CtBP-E1A inh	D2 ag	D2 potentiator	Six1-Eya2 inh
COc1ccc(/C=N/NC(=O)c2ccoc2C)cc1O
→ 16.2%	8.5%	-0.2	-6.6	-10.6	6.0
CCCn1c(N)c(N(CCOC)C(=O)c2ccc(S(=O)(=O)N3CCOCC3)cc2)c(=O)[nH]c1=O
→ -3.8%	-17.5%	1.0	0.3	-9.1	2.8
Cc1ccc(CS(=O)Cc2ccc(C(=O)N3CCN(c4ccc(F)cc4)CC3)o2)cc1 (configuration not stated)
→ -15.7%	-28.4%	0.9	-2.0	-16.5	-2.9
N#Cc1cccc(NC(=O)Nc2cccs2)c1
→ 1.8%	7.1%	2.1	2.9	-22.5	0.3
Cc1c(O)ccc(C(=O)COc2ccccc2F)c1O
→ ?	13.0%	-4.1	1.5	-7.9	2.6
CCCC1C2CN(C(C)C)CC=C2C(C#N)=C(N)C1(C#N)C#N (configuration not stated)
→ ?	8.4%	-16.3	-1.1	-0.5	-21.4
CCCC1/C(=N/O)CC(c2ccccc2)NC1c1ccccc1 (configuration not stated)
→ ?	-21.8%	7.2	9.7	?	-0.7
CC(C)(C)c1cnnn1-c1cccc([N+](=O)[O-])c1
→ 4.5%	-3.8%	8.1	-1.2	5.3	-10.2
COc1cc(/C=N/NC(=O)c2cccnc2)ccc1OCC(=O)N1CCOCC1
→ 2.2%	-67.5%[inhibitor]	0.2	-6.7	-4.4	-1.4
Cc1nn(-c2cccc3cccnc23)c(=O)c2ccccc12
→ 2.0%	11.0%	-2.2	-3.3	-0.9	-1.9
COc1ccc(N(C(=O)c2cccnc2)S(=O)(=O)c2ccc(F)cc2)cc1
→ -3.1%	7.2%	-18.8	-0.3	-2.7	10.1
COc1ccc(NCC(O)Cn2cnc3c2c(=O)n(C)c(=O)n3C)cc1 (configuration not stated)
→ -16.1%	40.7%	-5.0	0.2	7.6	7.9
CC(=O)Nc1cccc(NC(=O)CS(=O)(=O)c2cn(CC(=O)N3CCCC3)c3ccccc23)c1
→ 10.8%	17.5%[15.4 µM]	0.5	-0.2	-3.1	-4.8
Cc1csc(N2CCCC2=O)n1
→ 0.8%	-2.3%	-6.1	0.0	-3.2	8.7
Cc1cc(C)c(C)c(S(=O)(=O)Nc2ccc3cn[nH]c3c2)c1C
→ -18.5%	4.6%	.	0.8	-1.3	-6.5
COc1ccc(C2=NO[C@@H]3C(=O)N(c4c(C)cccc4C)C(=O)[C@H]23)cc1OC
→ -7.2%	17.9%	0.3	-2.4	5.7	-3.0
CC(SCC(=O)NC(C)C1CC2CCC1C2)C(=O)O (configuration not stated)
→ 7.3%	30.0%[15.4 µM]	8.3	-0.7	-0.6	7.5
CC(=O)Nc1ccc(NS(=O)(=O)c2ccc(C)cc2)cc1[N+](=O)[O-]
→ 7.8%	-6.2%[15.4 µM]	1.3	-0.6	-7.0	-1.1
Cc1c(C(=O)Nc2c(F)cc(F)cc2Br)sc2ncn(CC(=O)N3CCCC3)c(=O)c12
→ -7.8%	-22.4%	-4.1	3.2	-10.4	4.3
Cc1ccccc1CN1CCN(C(C)C(=O)NNC(=O)c2ccc(F)cc2)CC1 (configuration not stated)
→ 18.1%	5.5%	-3.0	1.5	-3.2	-3.7
CC(C)(C)CC(=O)Nc1ccc(-c2nnc3n2CCCCC3)cc1
→ 9.6%	-6.5%	6.4	-2.2	-1.8	3.1
Cc1ccc2[nH]c(O)c(N=NC(=O)C3CC3c3ccccc3)c2c1Br (configuration not stated)
→ 12.6%	-3.4%[15.4 µM]	-2.7	-4.8	-31.2	-4.2
CCn1c(/C(C#N)=N/O)nc2ccccc21
→ 0.6%	?	0.3	-2.3	-14.2	-7.4
COc1ccc(OC)c(NC(=O)COC(=O)CCS(=O)(=O)c2ccc(Cl)cc2)c1
→ 1.0%	11.2%	-11.7	-2.6	-12.8	1.8
O=C(CCNC(=O)c1ccc(Cl)cc1)Nc1cc(C(F)(F)F)ccc1N1CCOCC1
→ .	?	1.3	-1.3	-10.6	-0.4
O=C(Nc1ccc(Cl)cc1F)c1cccc2ccccc12
→ -16.4%	-50.6%[inhibitor]	14.1	2.7	-3.1	7.8
FC(F)(F)c1ccccc1Nc1nccs1
→ 5.8%	?	33.6	-1.4	-0.8	18.8
O=C(CN(Cc1ccco1)C(=O)CNS(=O)(=O)c1ccc(F)cc1)NCc1ccco1
→ -0.5%	-1.6%[15.4 µM]	-5.4	-3.1	-4.6	0.5
C/C(=N\N=C(/N)SC1CC(=O)N(c2cccc(Cl)c2)C1=O)c1cccs1 (configuration not stated)
→ -19.1%	-33.0%[inhibitor]	4.4	-1.6	3.8	-8.1
CC1=C([N+](=O)[O-])C(c2ccc3c(c2)OCO3)N(C)C(=O)N1C (configuration not stated)
→ -1.3%	-6.9%	5.5	3.4	-1.2	5.0
Cc1cccc(C)c1Nc1nnc(SCC(=O)c2ccc3c(c2)NC(=O)CO3)s1
→ -9.7%	?	-0.8	-3.7	-2.4	-1.4
Cc1ccc(Nc2n[nH]c(=S)s2)cc1C
→ .	-31.5%	3.1	9.3	-13.8	-10.3
Cc1ccc(N2C(=O)C3C4C=CC(CC4)C3C2=O)cc1Br (configuration not stated)
→ -2.0%	?	1.2	3.7	-2.2	1.7
COc1cc(/C=C/C(=O)OCC(=O)N(C)CC(=O)Nc2ccc(F)cc2)ccc1OC(F)F
→ -14.0%	-3.2%	?	4.6	1.2	-2.6
CCOC(=O)c1c(C)[nH]c(C)c1C(=O)COC(=O)CCOc1ccccc1OC
→ 4.9%	17.5%	-8.9	-4.1	-4.8	-5.2
COc1ccccc1N(C1=NCCCS1)S(=O)(=O)c1ccc(C(C)(C)C)cc1
→ 2.4%	-4.8%[15.4 µM]	15.2	-3.3	-10.9	-3.5
COc1cccc(CN2CCC(C(=O)N3CCN(Cc4ccc5c(c4)OCO5)CC3)CC2)c1
→ 3.5%	-32.4%[inhibitor]	-3.9	-3.9	-21.2	0.0
Cc1cc(Nc2ccccc2O)c2ccccc2n1
→ 0.4%	5.8%	-0.5	1.9	-2.5	-16.5
COCc1cc(N2CCOCC2)nc(-c2ccccc2)n1
→ -3.3%	-1.9%[15.4 µM]	-16.4	-5.8	-16.4	1.1
CCCCC(NC(=O)CCc1c(C)c2cc3c4c(oc3c(C)c2oc1=O)CCCC4)C(=O)O (configuration not stated)
→ -23.7%	5.2%	?	7.8	-6.0	-24.7
Cc1cc(C)cc(N(C(=O)c2ccccn2)C(C(=O)NC2CCCCC2)c2cccs2)c1 (configuration not stated)
→ -4.7%	6.3%	5.4	2.5	-4.2	-1.0
Cc1cc(N/N=C/c2ccccc2)nc(N2CCOCC2)n1
→ -7.5%	8.3%[15.4 µM]	-0.8	0.3	-2.0	0.0
CCc1ccc(CN(C)C(=O)c2ccc3c(c2)OCCO3)cc1
→ 6.5%	5.5%	3.1	-2.0	-9.0	11.4
O=S(=O)(NCCNS(=O)(=O)c1ccccc1)c1ccccc1
→ 8.6%	11.6%	4.3	-1.0	-8.4	3.3
CC1CN(Cc2cc(=O)[nH]c(C(C)C)n2)CC(C)O1 (configuration not stated)
→ 0.8%	-0.1%	-11.3	-0.6	-3.7	0.9
CCOc1cc(N2CCOCC2)c(OCC)cc1NC(=O)c1ccc(S(=O)(=O)N2CC(C)OC(C)C2)cc1 (configuration not stated)
→ 0.0%	-24.2%	.	-1.1	7.8	-0.8
O=C(O)CCC(=O)N1CCC(C(=O)c2cccc(Cl)c2)CC1
→ 3.1%	-14.8%	2.6	-0.7	-11.2	2.1
CCc1nnc(NS(=O)(=O)c2ccc(NC(=O)OC)cc2)s1
→ 7.9%	-2.5%	-9.3	-2.7	-8.7	20.7
COc1ccc(CN(Cc2cc3cc(C)ccc3[nH]c2=O)C(=O)N(C)C)cc1
→ 2.2%	-9.2%	0.4	-4.0	-8.0	2.0
COc1ccc(-n2nc3c(c2NC(=O)c2ccc4c(c2)OCO4)CS(=O)(=O)C3)cc1
→ -12.1%	?	-6.3	4.6	-3.5	-0.5
C=CCn1cc(C(=O)c2cc(Br)ccc2O)cc(C#N)c1=O
→ -19.7%	-21.6%[15.4 µM]	3.6	12.9	4.4	0.9
COc1cc(CN2CCCC(CO)(Cc3cccc(Cl)c3)C2)cc(OC)c1O (configuration not stated)
→ 7.7%	-1.5%	4.8	1.2	-0.2	-5.2
CC(C)(C)N1C(=O)c2ccccc2NC(=O)N1Cc1ccc(Br)cc1
→ -10.7%	?	-6.8	-4.0	-14.6	-5.7
O=C(CSc1nnc2ccccn12)Nc1ccccc1Cl
→ -1.4%	?	5.8	-0.7	-4.5	4.7
COc1ccc(CNC(=O)CSc2nnc(NC(=O)c3ccccc3F)s2)cc1
→ 2.8%	-8.9%[15.4 µM]	-12.2	-2.6	-4.5	2.7
Cc1ccc(C)c(OCc2nnc(NC(=O)c3ccco3)s2)c1
→ 22.6%	-20.7%	2.7	-2.2	8.0	0.8
CCOc1ccc2c(c1)OC(c1ccccc1)(C(F)(F)F)NC2=O (configuration not stated)
→ 17.7%	3.9%[15.4 µM]	-2.0	-1.2	-5.3	0.3
COc1ccc(S(=O)(=O)NC(C)C(=O)N2CCCC2)cc1Cl (configuration not stated)
→ 1.7%	23.2%	-4.0	-0.4	-4.1	4.1
O=C(Nc1ncccc1O)C1CCN(S(=O)(=O)c2ccc3ccccc3c2)CC1
→ 1.3%	6.1%	-28.0	0.5	-7.4	?
COc1cc(Cl)cc(C(=O)O)c1OCC(=O)O
→ 3.1%	-0.9%	-2.4	-1.4	-2.9	7.8

Following part
The line under a structure holds: gsp antagonist	gsp ag	CtBP-E1A inh	D2 ag	D2 potentiator	Six1-Eya2 inh
Cc1ccc(CC(CC(=O)O)C(=O)NC2CCCCC2)cc1 (configuration not stated)
→ -7.2%	-50.4%[inhibitor]	0.0	-2.6	-2.3	16.0
CCOC(=O)c1ccc(Oc2nc(SC)nc(N(C)C)n2)cc1
→ -16.1%	-13.7%	12.5	-0.1	-26.1	16.2
O=C(C1CCCCC1)N1C[C@@H](n2cc(C3CC3)nn2)[C@H](O)C[C@@H]1c1ccc(Cl)cc1
→ .	8.2%	0.0	2.1	3.4	21.9
COc1ccc(CCNC(=O)c2cn(C)c3ccc(S(=O)(=O)N4CCOCC4)cc3c2=O)cc1OC
→ -16.7%	33.7%	0.2	1.2	-2.7	-3.0
CCn1c(SCc2c(F)cccc2Cl)nnc1-c1ccco1
→ -26.2%	-47.7%[inhibitor]	-1.4	-1.2	-7.7	-4.5

2 records picked at random from the list so far, as already listed:
The line under a structure holds: gsp antagonist	gsp ag	CtBP-E1A inh	D2 ag	D2 potentiator	Six1-Eya2 inh
COc1ccc(CCNC(=O)c2cn(C)c3ccc(S(=O)(=O)N4CCOCC4)cc3c2=O)cc1OC
→ -16.7%	33.7%	0.2	1.2	-2.7	-3.0
CCOC(=O)c1ccc(Oc2nc(SC)nc(N(C)C)n2)cc1
→ -16.1%	-13.7%	12.5	-0.1	-26.1	16.2

From PubChem BioAssay
